# Bioassay records from PubChem.
# Sa RN4220 lethal = kills Staphylococcus aureus RN4220; inhibition, % (concentration not given with the values); actives 0.33% (n = 330,000); S. aureus RN4220 growth, OD600, 16 h; AID 1259311;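 active means z-score of -3 or lower and OD600 up to 0.18 on both plates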;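 further: plate controls were untreated cells for no effect and reference antibiotic for full effect; stock transfer was 100 nL into about 80 µL; one replicate is shown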
# ugtP null kill = kills S. aureus RN4220 lacking UgtP; S. aureus RN4220 ugtP deletion, OD600 growth, 16 h; some inactives read as strong as hits; growth inhibition, % (test concentration not listed); actives 0.54% (n = 330,000); AID 1259309;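 active means z-score under -3 and OD600 up to 0.15 on both plates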;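 further: plate controls were untreated wells for no effect and antibiotic for full effect; wells of about 80 µL received 100 nL stock; the first replicate is given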
# BJeLR viability = BJeLR cell viability loss | BJeLR (HRASV12) viability, CellTiter-Glo ATP luminescence, 48 h; reference of the scale not given here | inhibition, % (test concentration not listed) | actives 0.17% (n = 300,000) | AID 1554;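 active means replicate mean above 50%; inconclusive means above 50% but judged a plate artefact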;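 further: 50 nL library stock added to about 25 µL; numbers are from one replicate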
# Bead autofluor = flagged as autofluorescent in microsphere protease counterscreen | compound autofluorescence counterscreen, microsphere flow cytometry; active compounds read high | fluorescence intensity (no concentration beside the values) | actives 3.1% (n = 360,000) | AID 624483;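 active means at least 3 SD above the mean of all compounds, about 16000 in these data; inconclusive means too few beads counted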;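 further: 100 nL of 1 mM stock went into each well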
# Mtb hypoxia rep = Mtb hypoxia fluorescent reporter inhibition; M. tuberculosis hypoxia-regulated fluorescent reporter, fluorescence; fluorescence inhibition, % (concentration not given with the values); actives 0.1% (n = 300,000); AID 1159583;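 active means 35 to 45% if threefold the growth effect, above 45% if 1.5-fold the growth effect; inactive means the rest, general growth blockers included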;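 further: wells of about 50 µL received 100 nL stock; 0% = vehicle wells and 100% = reference inhibitor wells; whole bacteria with a GFP reporter of the hypoxia response; strong numbers were not always called active; many hits fall short of the cut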
# PrP 5UTR inh = inhibition of PrP 5' UTR reporter expression | cell-based PrP 5' UTR mRNA reporter, plate reader | inhibition, % (no concentration beside the values) | actives 0.35% (n = 340,000) | AID 488862;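 active means every replicate at 50% or more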;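 further: 0 = median of the neutral control wells; tested in H4 reporter cells; numbers are from one replicate; inactives centre near -14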
# Mtb hypoxia rep growth = recorded beside Mtb hypoxia rep, whose call it bears; growth inhibition, %; measured here: M. tuberculosis growth (absorbance);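 0% = vehicle and 100% = reference antibiotic; read after six days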
# The depositor's hits bear a star; u = inconclusive; x = not tested or not shown; & = joins results of further samples.
mol,Sa RN4220 lethal,ugtP null kill,BJeLR viability,Bead autofluor,Mtb hypoxia rep,Mtb hypoxia rep growth,PrP 5UTR inh
Cc1cc(OCC(=O)N[C@@H](Cc2ccccc2)C(=O)O)c2c3c(c(=O)oc2c1)CCC3,6.8,-8,3,4186,x,x,-8
CCn1c(NCc2cc(Cl)ccc2O)nc2ccccc21,-13,1,4,5847,2,2,-12
C=CCn1c(=S)[nH]c2sc3c(c2c1=O)CCC3,14,-5,1,8027,5,4,-14
CSc1ccc(S(=O)(=O)NCC(=O)OCC(=O)NCCc2ccccc2)cc1[N+](=O)[O-],4.1,5,1,u,-8,-6,-11
O=C(NCc1cccnc1)c1cccnc1-c1nc2ccccc2s1,3.7,5,-4,22730*,8,7,-10
CCC(C)(C)NC(=O)C(c1ccc(O)cc1)N(Cc1ccco1)C(=O)CCC(=O)Nc1ccccn1 (stereo not given),3.7,9,3,3662,-10,-1,-8
COC(=O)c1ccc(N/C=C/C(=O)c2ccccc2)cc1,-2.3,7,9,4140,4,8,-38
O=C(CCCNc1ccccc1)N/N=C/c1cccs1,x,x,-1,2436,x,x,-2
COc1ccc(N2CCN(C(=O)COC(=O)c3cccc(S(=O)(=O)Nc4ccccc4OC)c3)CC2)cc1,1.4,-8,4,5849,7,13,-1
Cn1c(C(=O)N[C@@H](Cc2ccccc2)C(=O)NCCC(=O)O)cc2cc(Cl)ccc21,2.5,8,1,3007,4,2,-15
CCC(=O)c1ccc(-c2ccccc2)cc1,19,8,4,2530,4,3,-43
O=C(Nc1ccccc1)c1ccccc1NS(=O)(=O)c1ccc(Cl)s1,87*,92*,11,2584,7,7,10
O=C(Nc1ccc(Cl)cc1)OCCn1nnnc1C(c1ccccc1Cl)N1CCOCC1 (stereo not given),0.3,-9,1,4157,6,-1,-20
CCc1ccc(OCC(=O)NC(=S)Nc2ccc(C(=O)O)cc2)cc1,4.3,-1,3,4474,x,x,0
CC1=Nc2cccc3cccc(c23)N1C,8.6,-1,-9,1978,x,x,-8
CCCOc1ccc(C2C(=O)N(C3CCCCC3)CC(=O)N2CCC)cc1OC (stereo not given),0.9,0,2,20044*,1,4,-15
CCCCS(=O)CC(CS(=O)CCCC)OC(=O)c1ccc(C)cc1 (stereo not given),5.0,-2,8,2524,-10,8,-6
O=C(CCCCCN1C(=O)c2cccc3cccc(c23)C1=O)N1CCOCC1,2.1,14,-10,9317,10,7,-10
O=C(NC12CC3CC(CC(C3)C1)C2)N1CCN(c2ncccn2)CC1,-2.5,-1,-1,3457,0,9,-20
CCCNC(=O)CCNC(=O)c1ccc(C(C)(C)C)cc1,3.6,5,6,10672,3,7,x
COc1ccc(C=Nn2c(=O)[nH]c3c([nH]c4ccc(C)cc43)c2=O)cc1CN1CCOCC1,7.4,-14,x,x,10,0,x
FC(F)Oc1ccc(NC(=S)N2CCc3ccccc32)cc1,3.3,3,0,2260,6,4,-34
Clc1ccc(SCc2cc(-c3ccc(Cl)cc3)on2)cc1,2.9,3,-7,2115,x,x,-34
c1ccc(CSc2ncn(-c3ccccc3)n2)cc1,8.0,-18,-9,2521,13,7,-73
CCN(CC)CCN1CNC(=S)N(c2ccccc2OC)C1,2.3,15,-5,x,10,-4,x

# Retrieved one by one from the list above, 3 records:
mol,Sa RN4220 lethal,ugtP null kill,BJeLR viability,Bead autofluor,Mtb hypoxia rep,Mtb hypoxia rep growth,PrP 5UTR inh
CCC(C)(C)NC(=O)C(c1ccc(O)cc1)N(Cc1ccco1)C(=O)CCC(=O)Nc1ccccn1 (stereo not given),3.7,9,3,3662,-10,-1,-8
CCn1c(NCc2cc(Cl)ccc2O)nc2ccccc21,-13,1,4,5847,2,2,-12
CCC(=O)c1ccc(-c2ccccc2)cc1,19,8,4,2530,4,3,-43

# (more compounds)
mol,Sa RN4220 lethal,ugtP null kill,BJeLR viability,Bead autofluor,Mtb hypoxia rep,Mtb hypoxia rep growth,PrP 5UTR inh
COc1cc(C(=O)Nc2ccc(S(=O)(=O)NC(C)(C)C)cc2)cc(OC)c1OC,1.8,-1,4,9618,5,-3,-9
CC1CC(C)CN(S(=O)(=O)c2ccc(NC(=O)CN3C(=O)NC(C)(c4ccccc4)C3=O)cc2)C1 (stereo not given),0.0,1,-5,5537,0,-2,3
O=C(COc1nncc2ccccc12)NCC(F)(F)F,4.6,12,-6,4288,-1,-3,-7
COc1ccccc1OCc1nc(C#N)c(NCc2ccco2)o1,2.0,4,-9,4324,x,x,-13
CC(C)c1ccc(NC(=S)N2CCCC2)cc1,0.3,-1,-5,6177,-5,4,-33
COC(=O)c1cccnc1SCc1ccccc1,10,-4,6,4027,-2,1,-9
Cc1cc(NC(=O)c2ccc(C)o2)no1,x,x,0,4230,x,x,0
NC(=O)c1nsc(C(=O)N(c2ccccc2)C(C(=O)NCC2CCCO2)c2ccc(F)cc2)c1N (stereo not given),4.4,7,-8,3322,-3,4,-18
CC1CCN(C(=O)CSc2nnc(-c3ccc(S(=O)(=O)N4CCOCC4)cc3)n2C)CC1,0.2,3,-5,10703,15,4,-26
Cc1cccc(CCNC(=O)CCc2c(C)nc3ncnn3c2C)c1,3.0,2,-6,4387,4,4,-19
Cc1ccc(/C=C/C(=O)N2CCc3ccccc32)o1,9.3,6,1,2037,9,5,-66
CCOc1ccc(-n2cc(C(=O)Nc3cccc(Cl)c3)c3cc(OC)c(OC)cc3c2=O)cc1,-3.8,-10,0,3971,3,6,-21
CCOC(=O)N1CCC(NC(=O)C2CCN(S(=O)(=O)c3cccc4cccnc34)CC2)CC1,7.5,-5,3,x,x,x,x
NS(=O)(=O)c1ccc(CCNC(=O)c2ccccc2-c2ccccc2)cc1,2.9,6,-7,3734,3,8,-2
CC(=NNC(=O)c1ccc(O)cc1)c1cccc(NC(=O)c2ccc(Cl)cc2)c1,0.9,5,x,x,7,-1,x
CC(C)CN(C(=O)C1CCCCC1)C1CCS(=O)(=O)C1 (stereo not given),0.1,4,-1,x,-3,-2,-16
COc1ccc(C(C)(C)C)cc1NC(=O)C1C2C=CC(C2)C1C(=O)O (stereo not given),2.6,3,-10,3089,8,5,-2
COc1cc(/C=C2\SC(=S)N(CCCCC(=O)O)C2=O)ccc1OS(=O)(=O)c1ccc(C)cc1,0.7,19,-3,5556,11,4,-18
COc1cc(C(=O)Nc2ccc(Oc3ncnc4sc(-c5ccccc5)cc34)cc2)cc(OC)c1OC,5.4,7,-19,2155,1,-1,-15
COc1ccc(-c2nc3cnccn3c2NC(C)(C)CC(C)(C)C)cc1O,1.3,16,1,3876,-3,5,-28
CC(C)(C)OC(=O)NCCC(=O)N/N=C/c1cccc2nccnc12,x,x,-10,3450,x,x,-6
O=C(CCS(=O)(=O)c1ccccc1)Nc1nc2c(s1)CCCC2,-11,-2,13,6343,7,13,-17
O=C(Nc1ccc(C(=O)O)cc1)/C(=C\c1ccccc1)NC(=O)c1ccc(Br)cc1,-4.7,2,-1,5832,-4,-6,-17
O=S(=O)(NCC1CCCO1)c1ccc2oc3ccc(S(=O)(=O)NCC4CCCO4)cc3c2c1 (stereo not given),-1.8,-4,-6,11277,-1,13,-13
COc1ccc2cc(C(C)C(=O)O)ccc2c1 (stereo not given),1.8&2.8&5.2,5&8&9,x,5614,4&3&5,11&2&1,-19
CN(C(=O)Nc1ccc(Cl)cc1)c1c2c(nn1C)CCCC2,3.8,-1,23,23809*,8,7,-20
Cc1cc(C)n(-c2ccc(C(=O)OCC(=O)N(CC(C)C)C3CCS(=O)(=O)C3)cc2)n1 (stereo not given),9.2,-11,-8,9386,16,9,-24
CCC1(C)SC(NC(C)=O)=NN1C(C)=O (stereo not given),1.5,4,5,3342,-1,-25,-14
CCc1ccc(N2CC(C(=O)NNC(=O)c3ccc(F)cc3)CC2=O)cc1 (stereo not given),-0.4,8,6,u,4,13,-10
COc1cccc(C(=O)NC2CCN(CC(=O)Nc3c(C)cc(C)cc3C)CC2)c1,2.9,1,-2,x,7,1,x
CCOc1cc(N2CCOCC2)c(OCC)cc1NC(=O)Cn1[nH]c(=O)c2ccccc2c1=O,-0.5,-6,2,9703,3,4,-6
COc1ccc(/C=C2\SC(=S)N(CCCC(=O)Nc3ccccn3)C2=O)cc1OC,6.6,-4,-10,3074,4,15,-15
Cc1cccc(Oc2ccccc2NC(=O)c2cnccn2)c1,2.6,-2,-1,2694,x,x,-10
O=C1NC(=O)C(=CN2CCc3ccccc32)C(=O)N1,x,x,-24,2679,x,x,-15
O=C(Cc1cccs1)N(Cc1ccco1)C1(C(=O)NC2CCCC2)CCCCC1,-0.3,7,-6,3027,x,x,-9
OC1C2CCC(C2)C1CN1CCOCC1 (stereo not given),3.0,3,x,4175,10,2,-27
Cc1ccc(C(=O)Oc2cc(C)n(C)c(=O)c2)cc1,-2.2,9,-10,3963,x,x,-15
NC(=O)N1CC(O)CC1C(=O)Nc1ccc(Cl)c(Cl)c1 (stereo not given),1.6,-1,-7,2425,x,x,-1
C/C(=N\Nc1nc(C)cc(=O)[nH]1)C1CC1,x,x,0,2443,x,x,-20
COC(=O)c1cc(OC)c(OC)cc1NC(=O)Cc1ccccc1[N+](=O)[O-],2.2,2,-1,10615,-8,1,x
CCCCS(=O)(=O)N1CCCC(C(=O)Oc2ccccc2)C1 (stereo not given),5.0,9,-1,4006,9,7,-9
CC(C)c1c(C(=O)NN=Cc2cccc(OCc3ccc(F)cc3)c2)nnn1-c1nonc1N,45,16,x,x,-4,-3,x
CN(C)/C=N/c1sc2c(c1C#N)CCCCC2,x,x,-5,1873,x,x,-39
COc1ccc(-c2c(-c3cc(OC)cc(OC)c3)n(C)c3ccc(-c4cnc(N)nc4)cc23)cc1,3.9,-1,x,3759,14,3,-5
COc1ccccc1CN1C[C@@H]2C[C@@H](c3ccccc3OC)N3CCC[C@@]23C1=O,10,1,-9,11066,4,2,-13
O=C(C1CC1)N1CCN(c2ccc([N+](=O)[O-])cc2-n2cccc2)CC1,-1.5,12,-2,5770,15,2,-7
c1ccc(CCc2nc(-c3ccccc3)no2)cc1,2.7,17,-3,3518,x,x,-57
CC(C)C(c1nnnn1CC1CCCO1)N1CCN(C2CCCC2)CC1 (stereo not given),-1.1,4,9,4675,x,x,3
CCSc1nncn1/N=C/c1ccc(OC)c(OC)c1,x,x,4,4724,x,x,-24
CCOc1ccc(Nc2cc3n(c(=O)n2)CCc2cc(OC)c(OC)cc2-3)cc1,-1.0,1,-10,3378,1,-6,2

# Other entries
mol,Sa RN4220 lethal,ugtP null kill,BJeLR viability,Bead autofluor,Mtb hypoxia rep,Mtb hypoxia rep growth,PrP 5UTR inh
Cc1ccc(/C=c2\sc3nc(-c4cccnc4)nn3c2=O)cc1,x,x,-3,11425,x,x,-32
CCCc1cc(=O)[nH]c(SCc2ccc(Cl)cc2)n1,7.1,-16,0,5803,-4,10,-10
CC(=O)Nc1cccc(OCC(=O)Nc2ccccc2)c1,7.3,-6,1,7096,12,7,-41
CCCn1c2ccc(C)cc2c2nnc(SCCN3CCCCC3)nc21,-2.8,8,22,4501,8,5,-6
O=C(CCN1C(=O)c2ccccc2S1(=O)=O)Nc1ccc2c(c1)OCCO2,-3.9,1,-2,6901,3,-1,-23
CN(C)c1ccc(/C=N/n2c(-c3cccnc3)n[nH]c2=S)cc1,x,x,-6,2146,x,x,-19
NC(=O)c1nsc(C(=O)N(CCCN2CCOCC2)C(C(=O)NC2CCCCC2)c2ccc(Cl)cc2)c1N (stereo not given),0.9,-2,0,5614,-2,4,-1
CCN(c1ccccc1)S(=O)(=O)c1ccc(C(=O)N2CCN(c3ccccc3)CC2)cc1,8.3,2,x,3809,15,2,-8
O=C(CCC(=O)N1CCN(c2cccc(Cl)c2)CC1)N1CCN(c2ccccc2)CC1,5.5,12,-3,3953,15,3,-18
C/C(=N\NC(=S)NC1CCCCC1)c1cccc(Br)c1,x,x,-7,2403,x,x,-23
COc1ccccc1C1CCCN1Cc1nc(-c2cc3c(cc2Cl)OCO3)oc1C (stereo not given),6.7,4,-6,5928,11,0,-28

# Rows are unselected; any-hit rate near 3.9%.
